Vaccinia inh: blocks a specific stage of Vaccinia orthopoxvirus infection | activity change (mCherry), % (no concentration beside the values) | Vaccinia-infected cells, mCherry/Venus stage reporter fluorescence; stronger effect = lower value; some inactives read as strong as hits | AID 1053133 | 89,000 compounds, 0.01% hits;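 active means mCherry past -33% and 40 or more points under the early reporter, replicates agreeing; inconclusive means past -33% without that gap or agreement; tested in A549 cells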;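 further: scaled between vehicle wells and reference inhibitor wells; 23 nL library stock went into each well; one replicate is shown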
Vaccinia inh Venus: second read-out of Vaccinia inh, no call of its own (marks repeat the call); activity change (Venus), %; measured here: Venus reporter, other viral stage;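 negative = less Venus signal; first of two replicates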
* marks the source's active call; other numbers are inactive results; u = inconclusive; x = not tested or not shown. Not all compounds are listed (hit frequency here may not be typical).

The line under a structure holds: Vaccinia inh, Vaccinia inh Venus
1	Cc1noc(C)c1S(=O)(=O)Nc1ccc2c(c1)CC(=O)N([C@H](C)CO)C[C@@H](C)[C@H](CN(C)S(=O)(=O)c1ccc(F)cc1)O2
  8.7, 5.9
2	CC(C)CC#Cc1cnc2c(c1)C(=O)N([C@@H](C)CO)C[C@@H](C)[C@H](CN(C)C(=O)Nc1ccccc1F)O2
  -17.0, -23.9
3	C[C@H](CO)N1C[C@H](C)[C@@H](CN(C)C(=O)Nc2ccc3c(c2)OCO3)Oc2ccc(NC(=O)Nc3ccc(C(F)(F)F)cc3)cc2CC1=O
  -18.1, -8.3
4	CCCN1C[C@H](C)[C@@H](OC)CN(C)C(=O)c2cc(NC(=O)c3ccc(F)cc3)ccc2OC[C@@H]1C
  -16.8, -10.8
5	CO[C@H]1CN(C)C(=O)c2cc(NC(=O)NC3CCCC3)ccc2OC[C@H](C)NC[C@H]1C
  8.9, 4.4
6	COc1ccc(CN(C)C[C@@H]2Oc3ccc(N(C)C)cc3CC(=O)N([C@H](C)CO)C[C@H]2C)cc1
  10.8, 8.7
7	CN1C(=O)c2cc(NS(C)(=O)=O)ccc2OC[C@@H]2O[C@H](CC(=O)NCc3ccc(-c4ccccc4)cc3)CC[C@H]21
  4.5, 6.9
8	CCCNC(=O)N(C)C[C@@H]1Oc2ncc(C#C[C@H](C)O)cc2C(=O)N([C@@H](C)CO)C[C@H]1C
  9.6, 4.6
9	C[C@@H]1CN([C@@H](C)CO)S(=O)(=O)c2ccc(C3=CCCC3)cc2O[C@@H]1CN(C)C(=O)c1ccc(F)cc1
  -9.4, -15.4
10	O=C(N[C@@H]1CC[C@H](CCn2cc(-c3ccccc3)nn2)O[C@H]1CO)c1cnccn1
  3.2, -1.6
11	COc1ccc(NC(=O)N(C)C[C@@H]2Oc3ccc(NC(=O)Nc4c(C)noc4C)cc3CC(=O)N([C@H](C)CO)C[C@H]2C)cc1
  11.6, 6.6
12	CCNC(=O)C[C@H]1CC[C@@H]2[C@@H](COc3ccc(NC(=O)Nc4cccc(F)c4)cc3C(=O)N2C)O1
  3.2, -0.5
13	C[C@H](CO)N1C[C@H](C)[C@H](CN(C)Cc2ccccn2)Oc2ncc(C3=CCCC3)cc2C1=O
  25.4, 12.2
14	C[C@H]1CN([C@@H](C)CO)C(=O)c2cc(NC(=O)NC3CCCCC3)ccc2O[C@@H]1CN(C)S(=O)(=O)c1ccccc1
  7.8, 1.5
15	CS(=O)(=O)N1C[C@@H](O)COC[C@H]2O[C@@H](CC(=O)NCc3ccc(-c4ccccc4)cc3)CC[C@@H]21
  -8.9, -5.2
16	C[C@@H]1CN([C@H](C)CO)C(=O)c2cccc(NS(=O)(=O)c3cn(C)cn3)c2O[C@H]1CN(C)Cc1ccc(C(F)(F)F)cc1
  14.8, 7.4
17	N#Cc1cccc(-c2ccc(C3[C@@H]4CN(Cc5ccccc5F)C[C@H]3N4)cc2)c1 (stereo partly specified)
  u, x
18	CCCN1[C@@H]2c3cccc(=O)n3C[C@@H]2[C@@H](CO)[C@@H]1C(=O)N[C@@H](C)c1ccccc1
  5.9, 10.3
19	CO[C@H]1CN(C)C(=O)c2ccc(NC(=O)CC(F)(F)F)cc2OC[C@H](C)N(S(=O)(=O)c2cn(C)cn2)C[C@H]1C
  18.6, 13.5
20	COc1ccccc1-c1cnc2c(c1)C(=O)N([C@@H](C)CO)C[C@H](C)[C@@H](CN(C)Cc1ccc(F)cc1)O2
  u, x
21	COc1ccccc1-c1cnc2c(c1)C(=O)N([C@H](C)CO)C[C@H](C)[C@H](CN(C)Cc1ccccc1)O2
  -6.1, 0.1
22	COc1cccc(C#Cc2ccc([C@@H]3[C@@H](CO)N4C(=O)CN(C(=O)Cc5ccccc5)C[C@@H]34)cc2)c1
  u, x
23	COCC(=O)N(C)C[C@H]1Oc2ncc(C#Cc3cccnc3)cc2C(=O)N([C@@H](C)CO)C[C@@H]1C
  4.0, 12.2
24	C[C@@H]1CN([C@@H](C)CO)C(=O)c2cc(C3=CCCC3)cnc2O[C@@H]1CN(C)C(=O)Nc1ccccc1
  -9.7, -0.3
25	C[C@H]1CCCCO[C@H](CN(C)Cc2ccc(C(F)(F)F)cc2)[C@@H](C)CN([C@@H](C)CO)C(=O)c2cc(N(C)C)ccc2O1
  u, x
26	C[C@@H]1CCCCO[C@H](CN(C)C(=O)CCC(F)(F)F)[C@@H](C)CN([C@H](C)CO)C(=O)c2cc(NS(=O)(=O)c3cn(C)cn3)ccc2O1
  23.5, 15.1
27	O=S(=O)(N[C@H]1CC[C@H](CCn2cc(-c3ccc(F)cc3)nn2)O[C@H]1CO)c1ccccc1F
  -2.1, 9.1
28	COc1ccccc1C#Cc1ccc([C@@H]2[C@H](C#N)N(C(=O)C3CCC3)[C@H]2CO)cc1
  -15.3, -8.8
29	Cc1ccc(S(=O)(=O)N[C@@H]2CC[C@@H](CCn3cc(C4(O)CCCC4)nn3)O[C@@H]2CO)cc1
  -8.7, -10.7
30	C[C@@H]1CN([C@@H](C)CO)C(=O)CCCn2nncc2CO[C@@H]1CN(C)CC1CC1
  9.8, 14.5
31	Cc1noc(C)c1S(=O)(=O)N(C)C[C@@H]1OCCCC[C@H](C)Oc2ccc(NC(=O)C3CCCCC3)cc2C(=O)N([C@H](C)CO)C[C@@H]1C
  -13.9, -16.3
32	C[C@H](CO)N1C[C@H](C)[C@H](CN(C)Cc2ccc3c(c2)OCCN3C)OCc2cnnn2CCCC1=O
  21.8, -4.5
33	CN(C)C(=O)C[C@@H]1C=C[C@@H](NC(=O)Nc2cccc(F)c2)[C@H](CO)O1
  7.8, 4.2
34	COc1cccc(S(=O)(=O)N[C@H]2C=C[C@@H](CC(=O)NCc3ccncc3)O[C@H]2CO)c1
  5.2, 13.0
35	CO[C@H]1CN(C)C(=O)c2ccc(NC(=O)C3CCC3)cc2OC[C@@H](C)N(Cc2cccnc2)C[C@@H]1C
  2.4, 7.6
36	C[C@@H]1CN([C@@H](C)CO)C(=O)c2cc(NC(=O)C3CC3)ccc2O[C@@H]1CN(C)Cc1ccc(Cl)c(Cl)c1
  u, x
37	CCC(=O)N1CC2(CCN(C(=O)CN3CCOCC3)CC2)c2c([nH]c3cc(OC)ccc23)[C@@H]1CO
  17.8, 10.5
38	NCC[C@H]1CC[C@@H](NC(=O)NC2CCCCC2)[C@@H](CO)O1
  7.6, 1.7
39	COc1ccc2c3c(n(C)c2c1)[C@@H](CO)N(C(=O)C1CCOCC1)CC31CCN(C(=O)C2CC2)CC1
  4.0, -1.5
40	CC(=O)N1[C@H](CO)[C@H](c2ccccc2)C12CN(C(=O)c1ccccc1)C2
  15.4, 11.6

Overlap with the part before: two compounds; new compounds follow.
The line under a structure holds: Vaccinia inh, Vaccinia inh Venus
39	COc1ccc2c3c(n(C)c2c1)[C@@H](CO)N(C(=O)C1CCOCC1)CC31CCN(C(=O)C2CC2)CC1
  4.0, -1.5
40	CC(=O)N1[C@H](CO)[C@H](c2ccccc2)C12CN(C(=O)c1ccccc1)C2
  15.4, 11.6
41	COc1ccccc1-c1cn(CC[C@H]2CC[C@@H](NC(=O)C3CCOCC3)[C@H](CO)O2)nn1
  8.1, 7.2
42	C[C@@H]1CN([C@H](C)CO)C(=O)c2cc(N(C)C)ccc2O[C@H]1CN(C)S(=O)(=O)c1cn(C)cn1
  -8.5, -10.0
43	C[C@@H]1CN([C@@H](C)CO)C(=O)c2cccc(NC(=O)Nc3cccc4ccccc34)c2O[C@H]1CN(C)S(C)(=O)=O
  -9.7, -3.5
44	C[C@@H]1CN([C@H](C)CO)C(=O)c2cc(NC(=O)NC3CCCCC3)ccc2O[C@@H]1CN(C)C
  19.2, 24.4
45	CCCC(=O)N1CC2(CCN(S(C)(=O)=O)CC2)c2c([nH]c3cc(OC)ccc23)[C@@H]1CO
  11.1, 3.8
46	CNC[C@@H]1Oc2c(NC(=O)c3cnccn3)cccc2C(=O)N([C@@H](C)CO)C[C@H]1C
  10.3, 2.4
47	COc1ccc(NC(=O)N2C[C@@H](O)COC[C@@H]3O[C@@H](CC(=O)NC4Cc5ccccc5C4)CC[C@H]32)cc1
  -3.8, -8.6
48	C[C@@H]1CCCCO[C@@H](CN(C)S(=O)(=O)c2ccccc2)[C@@H](C)CN([C@H](C)CO)C(=O)c2cc(NS(=O)(=O)c3ccc(F)cc3)ccc2O1
  20.8, 8.3
49	C[C@H](CO)N1C[C@H](C)[C@@H](CN(C)C(=O)Nc2cccc3ccccc23)Oc2ccc(NS(=O)(=O)c3cccs3)cc2C1=O
  19.9, 17.6
50	COc1ccc(S(=O)(=O)N(C)C[C@@H]2OCCCC[C@@H](C)Oc3ccc(NS(=O)(=O)c4ccc(Cl)cc4)cc3C(=O)N([C@H](C)CO)C[C@@H]2C)cc1
  -5.6, 1.1
51	C[C@@H]1CN([C@@H](C)CO)S(=O)(=O)c2ccc(-c3cncnc3)cc2O[C@H]1CN(C)C(=O)NC1CCCC1
  -2.3, 7.1
52	C/C=C/c1ccc([C@@H]2[C@H](CO)N(C(=O)c3ccccn3)C23CN(CCC(F)(F)F)C3)cc1
  2.5, 1.5
53	CC(C)NC(=O)N[C@@H]1CC[C@H](CCNC(=O)C2CCOCC2)O[C@H]1CO
  8.9, 5.4
54	Cc1ccc(S(=O)(=O)Nc2ccc3c(c2)C(=O)N([C@H](C)CO)C[C@@H](C)[C@H](CN(C)C)OCCCC[C@H](C)O3)cc1
  -1.6, 7.6
55	C[C@@H]1CCCCO[C@@H](CN(C)C(=O)Nc2ccc(F)cc2)[C@@H](C)CN([C@@H](C)CO)C(=O)c2cc(NC(=O)Nc3ccc(C(F)(F)F)cc3)ccc2O1
  -17.1, -13.1
56	CO[C@H]1CN(C)C(=O)c2cc(NC(=O)Nc3cccc(F)c3)ccc2OC[C@@H](C)N(C(C)=O)C[C@@H]1C
  1.4, 8.2
57	COc1ccc(NC(=O)N[C@@H]2CC[C@H](CCNC(=O)Nc3cc(F)ccc3F)O[C@H]2CO)cc1
  -4.3, -2.6
58	Cc1ccc(S(=O)(=O)N[C@H]2CC[C@@H](CCn3cc(-c4cccc(F)c4)nn3)O[C@H]2CO)cc1
  -32.9, -24.3
59	C[C@@H]1CN([C@@H](C)CO)C(=O)c2cccc(NC(=O)C3CCCCC3)c2O[C@@H]1CN(C)Cc1ccc(C(=O)O)cc1
  11.7, 9.2
60	C[C@@H]1CN([C@H](C)CO)C(=O)c2cc(NS(=O)(=O)c3ccc(F)cc3)ccc2O[C@@H](C)CCCCO[C@@H]1CN(C)S(=O)(=O)c1cccs1
  u, x
61	Cc1ccc(S(=O)(=O)Nc2ccc3c(c2)C(=O)N([C@H](C)CO)C[C@H](C)[C@H](CN(C)Cc2ccc(C(=O)Nc4ccccc4N)cc2)OCCCC[C@@H](C)O3)cc1
  1.0, -1.3
62	C[C@H]1CN([C@@H](C)CO)C(=O)Cc2cc(NC(=O)Cc3ccccc3)ccc2O[C@H]1CN(C)CC1CCCCC1
  -14.4, -11.4
63	C[C@@H]1CN([C@@H](C)CO)C(=O)c2cccc(NC(=O)c3ccncc3)c2O[C@@H]1CN(C)Cc1ccccc1
  5.5, 1.5
64	CCc1csc(N2[C@H](C#N)[C@H](c3ccc(C#Cc4ccc(F)cc4)cc3)[C@H]2CO)n1
  -16.0, -15.7
65	C[C@@H]1CN([C@@H](C)CO)C(=O)c2cc(NC(=O)Nc3ccccc3)ccc2O[C@@H](C)CCCCO[C@H]1CN(C)S(=O)(=O)c1cccs1
  8.3, 13.8
66	COc1cccc(-c2ccc3n(c2=O)C[C@@H]2[C@@H](CO)[C@H](C(=O)NC4Cc5ccccc5C4)N[C@H]32)c1
  -2.6, 5.2
67	C[C@H]1CN([C@@H](C)CO)C(=O)c2c(c3ccccc3n2C)-c2ccccc2CO[C@@H]1CN(C)S(=O)(=O)c1cccs1
  u, x
68	N#C[C@H]1[C@@H](c2ccccc2-c2cccc(F)c2)[C@@H](CO)N1C(=O)C1CCCC1
  -16.8, 13.3
69	COC(=O)[C@@H]1N[C@@H]2c3ccc(C4=CCCC4)c(=O)n3C[C@@H]2[C@H]1CO
  20.1, 16.0
70	CNC[C@@H]1OCCCC[C@H](C)Oc2ccc(N)cc2C(=O)N([C@@H](C)CO)C[C@H]1C
  -3.1, 2.5
71	COc1ccc2c3c(n(C)c2c1)[C@H](CO)N(C(=O)Nc1ccc(F)cc1)CC31CCN(Cc2cccc(F)c2)CC1
  u, x
72	CC(C)NC(=O)N(C)C[C@@H]1Oc2ccc(N(C)C)cc2C(=O)N([C@H](C)CO)C[C@H]1C
  15.7, -2.7
73	O=C(CN1CCOCC1)N[C@H]1CC[C@@H](CCNC(=O)C2CCC2)O[C@H]1CO
  6.9, 4.3
74	O=C(C[C@@H]1C=C[C@H](NC(=O)C2CCC2)[C@H](CO)O1)NCC1CC1
  3.5, 1.6
75	C[C@H](CO)N1C[C@H](C)[C@@H](CN(C)C(=O)NC2CCCC2)Oc2ncc(-c3ccncc3)cc2C1=O
  -0.8, 3.0
76	COc1ccc(S(=O)(=O)Nc2cccc3c2O[C@@H](CN(C)Cc2ccc4c(c2)OCO4)[C@@H](C)CN([C@H](C)CO)C3=O)cc1
  11.2, 14.3
77	O=C(NC[C@@H]1[C@@H](c2ccccc2)[C@H](CO)N1C(=O)C1CC1)NC1CCCC1
  6.0, -2.2
78	Cc1noc(C)c1NC(=O)Nc1ccc2c(c1)CC(=O)N([C@H](C)CO)C[C@@H](C)[C@H](CN(C)CC1CCCCC1)O2
  0.6, 4.4

From compound 77 as far as 78, copied from above:
The line under a structure holds: Vaccinia inh, Vaccinia inh Venus
77	O=C(NC[C@@H]1[C@@H](c2ccccc2)[C@H](CO)N1C(=O)C1CC1)NC1CCCC1
  6.0, -2.2
78	Cc1noc(C)c1NC(=O)Nc1ccc2c(c1)CC(=O)N([C@H](C)CO)C[C@@H](C)[C@H](CN(C)CC1CCCCC1)O2
  0.6, 4.4
